ClpP mod = qHTS Assay for Activators of ClpP; ATP-dependent Clp protease proteolytic subunit (Bacillus subtilis (strain 168)), P80244; 1.9% of 340,000 active; purified B. subtilis ClpP, FRET peptide cleavage, 20 min; Potency, µM (doses to about 57.5 µM), for inactives: top-dose activity change, negative = active; active = well fitted falling curve with a large enough effect; inconclusive = small, poorly fitted or top-dose-only effect; inactive = no such curve, though single readings can be large or run the other way; also: the source files actives as falling curves though it sought activators and does not explain the sign; nearly all actives have a fitted effect of over 65% in size; many hits overshoot -100%
Target sequence (P80244 whole entry, looked up): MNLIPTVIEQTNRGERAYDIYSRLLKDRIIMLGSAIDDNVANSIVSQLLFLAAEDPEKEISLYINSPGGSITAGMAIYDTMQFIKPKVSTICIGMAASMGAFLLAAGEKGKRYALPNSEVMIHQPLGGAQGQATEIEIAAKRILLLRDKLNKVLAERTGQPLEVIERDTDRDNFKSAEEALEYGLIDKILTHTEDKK
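Purified B. subtilis ClpP, 10 microg/mL final in Tris/HCl pH8 with KCl, BSA, glycerol and Tween-20, cleaved an Abz/nitrotyrosine-quenched decapeptide. Fluorescence (ex 320, em 430) was read at 0 and 20 min at room temperature. Delta was normalized to 5.8 microM ADEP and DMSO/no-enzyme controls.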
PINK1 expr mod = PINK1 expression modulation; PINK1 immunofluorescence, high-content cytometry, 24 h; 0.2% of 410,000 active; Potency, µM (highest dose often 76.6 µM), for the others: top-dose activation (PINK1 increase), usual class: activators; AID 624263; active = well fitted activation curve with a large enough effect; inconclusive = small, poorly fitted or top-dose-only effect; inactive = flat fitted curve, though single readings scatter; cell line not stated here;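 also: % of control where 0% means no effect; nearly all actives have a fitted effect of over 65% in size; a mitochondrial uncoupler was the plate control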
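Decision-based qHTS: stable cells, 24 h exposure to five compound concentrations, CCCP as control. Fixed cells stained for PINK1 plus nuclear, mitochondrial and cell markers, cytometer read.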
Numbers without * were called inactive; ? = inconclusive. Potency is read from the fitted curve at half-maximal effect. Some of the compounds tested; the hit share may differ from the screen's.

Values in the order – ClpP mod | PINK1 expr mod
1: CCc1ccc(S(=O)(=O)c2nnn3c2nc(Nc2cccc(C)c2C)c2sccc23)cc1
  204% | 0.3%
2: CCOC(=O)c1cccc(Nc2nc(C(=O)OCC)nc3ccccc23)c1
  -6.3% | -0.6%
3: Cc1c2cnn(-c3ccccc3)c(=O)c2c(C)n1CCCC(=O)Nc1cc(F)ccc1F
  -7.1% | 0.4%
4: Cc1nccn1-c1ccc(NC(=O)[C@H]2O[C@@H](n3ccc(N)nc3=O)[C@H](O)[C@@H]2O)cc1
  2.4% | 0.9%
5: CCOC(=O)c1c(C)[nH]c(C)c1S(=O)(=O)N1CCCC(C(=O)N2CCN(c3ccccc3F)CC2)C1 (stereo not given)
  -3.8% | 1.2%
6: CCOC(=O)C1CCCN(CC(=O)Nc2cc(C)c3c(=O)oc4ccccc4c3n2)C1 (stereo not given)
  -4.2% | 2.6%
7: Cc1ccc2sc(N(Cc3cccnc3)C(=O)CCOc3ccccc3)nc2c1C
  -1.0% | 0.5%
8: CCN1CCN(c2csc3ccc(C)cc3c2=O)CC1
  -11% | -0.7%
9: Cc1ccc(-c2noc(CSc3nnc(C)n3-c3ccc(C)cc3)n2)cc1
  1.2% | 0.0%
10: CCOC(=O)C(Cc1c[nH]c2ccccc12)NC(=O)COc1ccc(CC)cc1 (stereo not given)
  -1.9% | 2.1%
11: COc1cc2c(NC3CCN(C)CC3)nc(N3CCCN(C)CC3)nc2cc1OCCCCCCN(C)C
  4.3% | -1.2%
12: COc1ccc(-c2nn3c(=O)cc(CN4CCN(C(=O)c5ccc(C(C)(C)C)cc5)CC4)nc3s2)cc1
  -17% | 0.3%
13: Cc1ccc(NC(=O)c2oc3ccccc3c2NC(=O)c2cc3ccccc3o2)cc1
  17% | 8.4%
14: COCCCn1c(=N)c(C(=O)NCc2cccnc2)cc2c(=O)n3cccc(C)c3nc21
  4.3% | 0.4%
15: COc1cccc(C(=O)Nc2cc3c(cc2C(=O)c2ccc(C)cc2)OCCO3)c1
  0.4% | -0.1%

The list goes on; the last three above are carried over.
Values in the order – ClpP mod | PINK1 expr mod
13: Cc1ccc(NC(=O)c2oc3ccccc3c2NC(=O)c2cc3ccccc3o2)cc1
  17% | 8.4%
14: COCCCn1c(=N)c(C(=O)NCc2cccnc2)cc2c(=O)n3cccc(C)c3nc21
  4.3% | 0.4%
15: COc1cccc(C(=O)Nc2cc3c(cc2C(=O)c2ccc(C)cc2)OCCO3)c1
  0.4% | -0.1%
16: CCCNC(=O)c1cc2n(n1)CCCN(Cc1ccc(F)cc1)C2=O
  2.0% | 3.8%
17: COc1cc(-c2cc(OC)c3c(C)oc(C)c3c(=O)c2)ccc1OC(=O)c1ccccc1F
  -0.6% | -0.6%
18: CCOC(=O)C1CCN(C(=O)Cn2nc(CC)n3c(cc4sccc43)c2=O)CC1
  -15% | 2.3%
19: COc1ccc(S(=O)(=O)NCCc2sc(-c3cccnc3)nc2C)c(F)c1
  3.7% | 0.5%
20: COCCNc1ccc(-c2nc(-c3cccc(C)c3)no2)cc1[N+](=O)[O-]
  -2.4% | 4.8%
21: COC(=O)[C@@]1(Sc2ccc(C)cc2)CC(=O)N(c2cccc(SC)c2)[C@@H]1c1ccccc1
  -5.4% | 0.3%
22: Cc1cc(C)cc(NC(=O)CCc2nnc3n(CC(C)C)c(=O)c4ccccc4n23)c1
  -0.3% | 0.2%
23: COc1cc2nc(Nc3cccc(C)c3)nc(N)c2cc1OC
  ? | -1.4%
24: CCOC(=O)C1CCC(CN(Cc2ccc(Cl)cc2)S(=O)(=O)c2cccc(Cl)c2C)CC1 (stereo not given)
  0.7% | 0.9%
25: N#CN=c1snc(-c2ccccc2Cl)n1-c1ccc(F)cc1
  1.1% | -0.6%
26: COc1ccc(CNC(=O)CSc2nc(-c3ccc(OC)cc3)cc(C(F)(F)F)n2)cc1
  -15% | 5.4%
27: CCn1c2c(c(=O)n3ncc(C(=O)Nc4cccc(Cl)c4C)c13)CN(Cc1ccc(OC)cc1)CC2
  ? | -1.8%
28: O=C(Nc1cc(-c2nc3ccccc3o2)ccc1Cl)c1ccc(N2CCCCC2)c([N+](=O)[O-])c1
  -2.8% | 1.8%
29: O=C(c1cnn(-c2cccc(F)c2)c1-n1cccc1)N1CCN(c2ccccc2F)CC1
  2.3% | -1.3%
30: CN1CCN2c3ccccc3CC3(C(=O)OC(C)(C)OC3=O)C2C1 (stereo not given)
  -2.9% | 1.1%

Additional entries:
Values in the order – ClpP mod | PINK1 expr mod
31: CCn1c(C(=O)NCc2ccccc2Br)cc2oc3ccccc3c21
  22µM* | 3.0%
32: CCOC(=O)C1CCCN(C(=O)c2ccc3c(c2)sc2nc(-c4ccc(C)cc4C)cn23)C1 (stereo not given)
  -5.4% | -0.3%
33: COC(=O)c1ccc([C@@H]2Nc3c(OC)ccc(C)c3[C@@H]3C=CC[C@@H]32)cc1
  -6.1% | 4.5%
34: COc1ccc(C2CC(=O)Nc3c2c(=O)n(C)c2nc4ccccc4n32)cc1 (stereo not given)
  4.0% | 4.4%
35: Cc1nn(-c2ccccc2)c(OC(=O)C(C)C)c1Sc1ccc(Cl)cc1
  -0.1% | 0.2%
36: Cc1ccc(CNC(=O)c2cc(-c3ccc(Cl)cc3)on2)cc1
  1.1% | -0.6%
37: CCOCCCNC(=O)CN1C(=O)c2c(c3ccccc3n2C)C1c1ccc(OC)cc1 (stereo not given)
  32µM* | 0.3%
38: O=C(CCc1ccccc1)N1CCc2c([nH]c3ccccc23)C1c1ccc(Cl)cc1 (stereo not given)
  -7.6% | 1.1%
39: COc1cccc(N2CCN(c3ccc4nnc(CCC(=O)O)n4n3)CC2)c1
  0.2% | 4.2%
40: Cc1ccc(-c2nnc3ccccc3c2C(=O)Nc2cccc(Cl)c2)cc1
  0.3% | 0.7%
41: COc1ccc(CCC(=O)NCc2ccc3c(c2)CCN3C(=O)c2ccc(F)cc2)cc1
  -2.4% | 1.8%
42: O=C1C(c2ccc(C(F)(F)F)cc2)=C(Nc2ccc(Cl)cc2)c2ccccc21
  2.8% | 0.3%
43: Cc1cc(OC(C)C(=O)N(Cc2ccco2)Cc2ccco2)cc(C)c1Cl (stereo not given)
  -3.0% | 3.1%
44: CCN(CC)CCN(C(=O)c1ccc(C(=O)OC)cc1)c1nc2ccc(Cl)cc2s1
  0.6% | 2.2%
45: Cc1ccc(Cl)cc1NS(=O)(=O)c1ccc2oc(=O)c3ncn(C)c3c2c1
  0.4% | 1.3%

Later entries.
Values in the order – ClpP mod | PINK1 expr mod
46: CS(=O)(=O)NCC(c1ccco1)N1CCN(c2ccccc2)CC1 (stereo not given)
  0.6% | 0.7%
47: Cc1nn(-c2ccccc2)c(OC(=O)c2ccccc2Br)c1S(=O)(=O)c1ccccc1
  1.5% | -0.5%
48: COc1ccc2nc(NC(=O)c3cc(=O)c4ccccc4o3)sc2c1
  -0.2% | 1.1%
49: O=C(CN1CCN(CC(=O)Nc2ccccc2F)CC1)Nc1ccc(Cl)c(C(F)(F)F)c1
  1.8% | 2.4%
50: Cc1ccc(CCNC(=O)c2cc3cc(S(=O)(=O)N4CCCCC4)ccc3n2C)cc1
  -1.4% | 0.8%
51: Cc1cccc(C(=O)Nc2cccc(OCc3cc(=O)n4cccc(C)c4n3)c2)c1
  -14% | 12%
52: O=C1NC[C@H](CCCCN2C[C@H](Cc3ccccc3)N(CCC3CCCCC3)C(=O)C2=O)N(CCc2ccccc2)C1=O
  -0.1% | 3.1%
53: Cc1ccc(CNC(=O)CCC(=O)N2Cc3ccccc3Oc3ncccc32)cc1
  -0.3% | -0.5%
54: CCOC(=O)c1cc(OC(=O)c2ccc(OC)cc2)n(-c2ccccc2)n1
  -1.4% | -1.0%
55: CCC1CCCCN1CCCNC(=O)c1ccc2c(c1)N(Cc1ccc(Cl)cc1)C(=O)c1ccccc1S2(=O)=O (stereo not given)
  -3.8% | -1.3%
56: Cc1ccc(-n2ncc(C(=O)NCCc3c[nH]c4ccccc34)c2C2CCN(C(=O)OC(C)(C)C)CC2)cc1C
  -9.0% | 5.0%
57: COc1cccc(NC(=O)Cn2c(=O)n(CCC(=O)NCCc3ccc(Cl)cc3)c(=O)c3ccccc32)c1
  -14% | 12%
58: CCOc1ccc(Nc2oc(-c3ccc(COc4ccccc4C)o3)nc2C#N)cc1
  35% | 6.8%
59: Cc1ccc(Cl)cc1N1CCN(c2ncnc3c2nc2n3CCCCC2)CC1
  -0.6% | 2.5%
60: Cc1ccccc1CCNC(=O)c1ccc(NC(=O)N2CC(C)Sc3ccccc32)cc1 (stereo not given)
  -13% | -1.5%

Other results follow:
Values in the order – ClpP mod | PINK1 expr mod
61: CC(C)NC(=O)C1CCN(C(=O)N2CC(C)Oc3ccccc32)CC1 (stereo not given)
  4.5% | -1.4%
62: CCOCCCNC(=O)Cn1nc(CC)n2c(cc3c(OC)cccc32)c1=O
  4.4% | 2.7%
63: CCS(=O)(=O)c1ncc(Cl)c(C(=O)Nc2ccccc2)n1
  0.4% | -1.7%
64: O=C(NCCc1csc(-c2ccc(F)cc2)n1)C(=O)Nc1ccc(Cl)cc1
  -1.9% | 1.9%
65: COc1ccc(-c2nnn3c2nc(N2CCCC(C)C2)c2ccccc23)cc1 (stereo not given)
  -2.3% | 1.1%
66: Cc1ccc2c(c1)-c1onc(C(=O)N3CCN(c4ccc(Cl)cc4)CC3)c1CO2
  0.6% | 1.0%
67: Cc1ccc(OC(=O)c2snnc2C)cc1C
  1.3% | -1.5%
68: Cc1cc(NC(=O)CSc2nc(-c3ccccc3F)nc3c2c(=O)n(C)c(=O)n3C)no1
  -0.4% | -0.4%
69: CC(C)c1ccc(C2NC(=O)c3c(sc4c3CCN(C)C4)N2)cc1 (stereo not given)
  3.7% | 1.5%
70: O=C(COc1ccccc1C(=O)Nc1ccccc1)Nc1ccc2ccccc2c1
  ? | 8.6%
71: Cc1ccc(-c2nnc(Nc3ccc(Cl)c(Cl)c3)c3ccccc23)cc1S(=O)(=O)NCCO
  ? | 1.6%
72: CCc1ccc(C(=O)c2cn(CC(=O)Nc3ccc(Cl)cc3)c3cc4c(cc3c2=O)OCO4)cc1
  -1.9% | 0.9%
73: COc1ccc(Cl)cc1NC(=O)Cn1cc(C(=O)c2ccncc2)c(=O)c2cc(C)ccc21
  -7.2% | -0.2%
74: COc1ccccc1N1CCN(C(=O)CCNS(=O)(=O)c2ccc3c(c2)CCN3C(=O)C2CC2)CC1
  2.9% | -3.3%
75: CCCOc1ccc(NC(=O)CC2C(=O)N(c3cccc(OC)c3)C(=O)N2Cc2cccs2)cc1 (stereo not given)
  -3.3% | 2.4%

Already shown: entries from further up.
Values in the order – ClpP mod | PINK1 expr mod
1: CCc1ccc(S(=O)(=O)c2nnn3c2nc(Nc2cccc(C)c2C)c2sccc23)cc1
  204% | 0.3%
2: CCOC(=O)c1cccc(Nc2nc(C(=O)OCC)nc3ccccc23)c1
  -6.3% | -0.6%
3: Cc1c2cnn(-c3ccccc3)c(=O)c2c(C)n1CCCC(=O)Nc1cc(F)ccc1F
  -7.1% | 0.4%

Remaining list, next part
Values in the order – ClpP mod | PINK1 expr mod
76: O=C(COCc1cc(-c2ccc(F)cc2)on1)Nc1cccc(C(F)(F)F)c1
  1.9% | 0.4%
77: Cc1[nH]c2ccccc2c1C1N2CC3(C)CN1CC(C)(C2)C3=O (stereo not given)
  -0.6% | 4.3%
78: CCn1cc(C(=O)NCCc2ccccc2)c(=O)c2cc(S(=O)(=O)N3CCc4ccccc4C3)ccc21
  -4.3% | 2.2%
79: COc1ccc(-n2c(=O)c3c(C)c(C)sc3n(CC(=O)NCc3ccc(C)cc3)c2=O)c(OC)c1
  -3.9% | 3.0%
80: Cc1ccccc1NC(=O)CSc1nc2ccccc2c2nc(CCn3c(C)nc4ccccc43)nn12
  -0.6% | -0.5%
81: COc1ccc(-c2oc3ncn4nc(COc5ccccc5C)nc4c3c2-c2ccc(OC)cc2)cc1
  3.7% | 2.4%
82: Cc1ccc(/C=C/c2onc(C)c2S(=O)(=O)N2CCC(C(=O)N3CCOc4ccccc43)CC2)cc1
  -18% | 0.1%
83: Cc1c(CC(=O)NCc2ccccc2)c(=O)oc2c(C)c(O)ccc12
  4.4% | 5.9%
84: O=C(CCc1nnc2n(Cc3ccccc3Cl)c(=O)c3ccccc3n12)Nc1ccccc1
  29% | 1.5%
85: COc1cc(OC)c(/C=C/c2ccncn2)c(OC)c1
  -11% | 0.3%
86: Cc1ccc2nc(SCc3nc(-c4ccc(Cl)cc4)no3)[nH]c2c1
  2.2% | ?
87: Cc1c(CCNC(=O)c2c(F)cccc2F)sc2nc(-c3ccc(F)cc3)nn12
  1.3% | 0.2%
88: COc1ccc(-n2nc(C(=O)NCc3ccc(F)cc3)c3c4ccccc4n(C)c3c2=O)cc1
  ? | -0.7%
89: CC(C)c1ccc(NC(=O)C2CCCN(S(=O)(=O)c3cccc4cccnc34)C2)cc1 (stereo not given)
  -1.4% | 3.0%
90: COc1ccccc1N1CCN(c2nc3ccccc3n3cnnc23)CC1
  0.1% | 0.6%
91: COC(=O)c1cnn(-c2ccc(C(=O)Nc3ccc(OC(F)(F)F)cc3)cc2)c1N
  -4.0% | 1.9%
92: COc1ccc(NC(=O)COCc2cc(-c3ccco3)on2)cc1
  -1.4% | 0.1%
